# PrP UTR inh: inhibition of PrP 5' UTR reporter expression | inhibition, % (concentration not given with the values) | hit rate 0.35% among 340,000 | cell-based PrP 5' UTR mRNA reporter, plate reader;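 active means every replicate at 50% or more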;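 further: 0 = median of the neutral control wells; tested in H4 reporter cells; numbers are from one replicate; inactives centre near -14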
# Bead autofluor: compound fluorescence in toxin protease inhibitor counterscreen | compound autofluorescence counterscreen, microsphere flow cytometry; active compounds read high | fluorescence intensity (concentration not given with the values) | hit rate 3.1% among 360,000 | AID 624483;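 active means at least 3 SD above the mean of all compounds, about 16000 in these data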;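 further: 100 nL of 1 mM stock went into each well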
# BJeLR viability: BJeLR cell viability loss; BJeLR (HRASV12) viability, CellTiter-Glo ATP luminescence, 48 h; reference of the scale not given here; hit rate 0.17% among 300,000; inhibition, % (no concentration beside the values);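 active means replicate mean above 50%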;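 further: 50 nL library stock added to about 25 µL; numbers are from one replicate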
# RN4220 kill: S. aureus RN4220 growth inhibition | OD600, 16 h | inhibition, % (no concentration beside the values) | hit rate 0.33% among 330,000;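 active means z-score of -3 or lower and OD600 up to 0.18 on both plates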;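 further: plate controls were untreated cells for no effect and reference antibiotic for full effect; stock transfer was 100 nL into about 80 µL; one replicate is shown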
# ugtP null kill: compounds lethal to S. aureus RN4220 ugtP deletion mutant; OD600 growth, 16 h; some inactives read as strong as hits; growth inhibition, % (no concentration beside the values); AID 1259309; hit rate 0.54% among 330,000;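 active means z-score under -3 and OD600 up to 0.15 on both plates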;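 further: plate controls were untreated wells for no effect and antibiotic for full effect; wells of about 80 µL received 100 nL stock; the first replicate is given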
# Mtb hypoxia inh: reduces hypoxia-regulated biosensor signal in M. tuberculosis; M. tuberculosis hypoxia-regulated fluorescent reporter, fluorescence; fluorescence inhibition, % (no concentration beside the values); hit rate 0.1% among 300,000; AID 1159583;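 active means 35 to 45% if threefold the growth effect, above 45% if 1.5-fold the growth effect; inactive means the rest, general growth blockers included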;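 further: wells of about 50 µL received 100 nL stock; 0% = vehicle wells and 100% = reference inhibitor wells; whole bacteria with a GFP reporter of the hypoxia response; strong numbers were not always called active; many hits fall short of the cut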
# Mtb hypoxia inh growth: recorded beside Mtb hypoxia inh, whose call it bears; growth inhibition, %; measured here: M. tuberculosis growth (absorbance);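 0% = vehicle and 100% = reference antibiotic; read after six days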
# * marks the source's active call; other numbers are inactive results; · = no result given.
SMILES,PrP UTR inh,Bead autofluor,BJeLR viability,RN4220 kill,ugtP null kill,Mtb hypoxia inh,Mtb hypoxia inh growth
CCCCCCOc1ccc(/C=c2\s/c(=C(/C#N)C(=O)NCc3ccco3)n(-c3ccccc3)c2=O)cc1,-9,2056,2,·,·,·,·
O=C(NCC1CCCO1)c1ccc(CS(=O)(=O)c2ccc(Cl)cc2)o1 (stereo not given),8,22230*,11,6.5,13,2,-6
CC12CC(NC(=O)N1c1ccc(C(=O)N3CCN(c4ccc(F)cc4)CC3)cc1)c1ccccc1O2 (stereo not given),-5,4806,8,-0.9,4,·,·
CCCC(=O)NC(=S)Nc1cccc(Cl)c1N1CCCC1,-20,4340,5,·,·,·,·
O=[N+]([O-])c1cccc(/C=C/C=NNc2nc(N3CCCCC3)nc(N3CCCCC3)n2)c1,·,·,·,3.6,9,7,12
CCn1c(=O)c2c(O)cc(=O)oc2c2ccccc21,-19,22829*,-2,5.8,5,-6,-3
c1ccc(CCc2nc(-c3ccncc3)no2)cc1,-24,4053,2,5.6,5,·,·
COC(=O)c1ccc(CNC(=O)COC(=O)/C=C/c2ccc(OC)c(OC)c2)cc1,-16,·,·,4.0,20,-1,1
CN1C(=O)NC(c2ccccc2)(C(F)(F)F)S/C1=C(/C#N)c1nnc(N2CCOCC2)n1-c1ccccc1 (stereo not given),-25,2500,-5,5.6,1,-12,-1
Cc1cccc2cc(C#N)c(SCC(=O)N3CC(=O)Nc4ccccc43)nc12,64*,2773,54*,-1.7,5,·,·
CCOC(=O)C1(CCc2ccccc2)CCN(Cc2ccc(O)cc2)CC1,-21,5726,12,·,·,·,·
CCOC(=O)c1c(N=CC2C(=O)NC(=O)NC2=O)sc2c1CCC2,·,·,·,6.4,4,3,-4
COc1ccc(NS(=O)(=O)c2cccc3cccnc23)cc1,-21,6368,-11,2.9,9,12,4
O=C(COC(=O)C1=NNC(=O)CC1)NCCc1ccccc1,-26,·,-12,1.1,4,5,1
COc1cc2c(cc1OC)CN(C(=O)c1ccc(OC)c(S(=O)(=O)N3CCOCC3)c1)CC2,-19,4720,11,-0.9,1,·,·
COc1ccc2c(c1)c(C(=O)N/N=C/c1cn(C)c3ccccc13)c(C)n2C,-18,4038,-5,·,·,·,·
COc1ccc(Br)cc1C(=O)Nc1cccc(-c2nnc(-c3ccco3)o2)c1,-21,8060,7,30,3,-1,3
COc1ccc(NC(=O)c2cc(S(=O)(=O)N3CCCC3)c[nH]2)cc1,-29,5390,3,0.9,8,4,6
CCOC(=O)Nc1ccc(OCc2nnc3c4ccccc4c(C)nn23)cc1,-12,4508,8,6.0,0,8,2
Cc1cc(C)c(OCC(=O)OCC(=O)N(C)C2CCS(=O)(=O)C2)c(C)c1 (stereo not given),-6,6351,-3,0.8,2,5,-2
C#CCSc1nnc(-c2cccc3ccccc23)o1,-37,16238*,6,9.7,8,·,·
Cc1ccc(-c2[nH]nc3c2C(C)C(C#N)=C(N)O3)cc1 (stereo not given),-11,1865,9,8.6,6,6,5
CC(C)(C)OC(=O)C(Cc1ccc(OC(C)(C)C)cc1)NC(=O)CNC(=O)CNC(=O)OCc1ccccc1 (stereo not given),-5,7408,-8,6.0,3,7,5
COc1ccccc1OCc1ccc(C(=O)NN)o1,-19,·,-1,2.1,9,6,-11
Cc1ccc2c(c1)CCCN2C(=O)c1ccc2c(c1)OCO2,-10,23514*,-10,1.3,5,8,8
CN(C)CCCN(C(=O)c1ccc(Br)s1)c1nc2cc3c(cc2s1)OCCO3,-20,5500,19,-0.7,46,13,2
CCc1nnc(NC(=O)CCc2nc(C3=CCN(C)CC3)no2)s1,-11,2742,-15,12,6,-4,-4
COc1ccc(/C=N/N=C2\SC(CC(=O)O)C(=O)N2c2ccccc2)cc1 (stereo not given),-13,2447,-11,·,·,·,·
C=C(C)Cn1c(CCNC(=O)CCC)nc2ccccc21,-11,3827,-2,0.4,-2,15,13
Cn1nnnc1SCC(=O)N1CCN(c2cccc(Cl)c2)CC1,-15,4786,-3,-3.6,3,·,·
COc1ccc(C2=Nc3ccc(C)cc3C(c3ccccc3)N2CC(=O)NN)cc1 (stereo not given),-38,4200,-4,7.1,0,10,7
Cc1ccc(C(=O)CN(CCCC(N)=O)C(=O)c2ccncc2)cc1,-18,3588,·,1.0,-1,9,14
CCCC[n+]1cc(=N)o[n-]1,-25,4835,-7,2.9,-2,13,2
COc1ccc(-c2nnc(N)s2)cc1,-31,23923*,·,6.9,2,4,4
CC(C)C(NS(=O)(=O)c1cccc2nsnc12)C(=O)Nc1nccs1 (stereo not given),-33,4594,-5,5.0,9,-4,2
Cc1nc2nc3c(cn2n1)C(=O)CC(C)(C)C3,0,9305,-5,5.4,2,-1,11
CCCCN1C(N)=NC[C@@H]1CC1CCCCC1,-22,3083,3,·,·,·,·
CCOC(=O)c1c(NC(=O)CCl)sc(C(=O)N(CC)CC)c1C,-6,4737,-21,1.0,5,19,20
Cc1ccc(N(CCC(=O)NC(C)(C)C)S(=O)(=O)c2ccc(C)cc2)cc1,-16,2186,-3,3.2,-9,9,14
Cc1[nH]n(-c2ccccc2)c(=O)c1-c1ccccc1,-17,·,-1,16,5,-6,7
CCC(C)Sc1nnc(NC(=O)c2ccco2)s1 (stereo not given),-28,4051,-10,·,·,·,·
O=C(c1ccccc1)N1CCN(Cc2ccccc2Br)CC1,-19,3134,·,2.9,6,·,·
CC1(C)CC(NS(=O)(=O)c2ccc(F)cc2)CC(C)(C)N1,-31,4074,1,·,·,·,·
CC1(C)Cc2c(cnn2-c2ccccc2)C(NC(=O)c2ccc[n+]([O-])c2)C1 (stereo not given),-14,5672,-7,-0.2,-1,-5,7
CN(Cc1ccccc1F)C(=O)c1sccc1-c1ccccc1,-8,4995,-1,9.6,6,4,10
COc1ccc(CNC(=O)C2CCN(S(=O)(=O)N3CCC4(CC3)OCCO4)CC2)c(OC)c1,-23,2617,-5,-1.7,5,1,3
CC[C@@H](C)C(NC(=O)OC(C)(C)C)c1cn([C@@H](CCCCNC(=O)OC(C)(C)C)C(=O)N2CCN(C(=O)OC(C)(C)C)CC2)nn1 (stereo not given in full),-3,4039,-3,·,·,·,·
COc1ccccc1NC(=O)C(=O)NCC1CCCN1S(=O)(=O)c1cccs1 (stereo not given),-1,7911,9,·,·,·,·

# For reference, 4 of the compounds above:
SMILES,PrP UTR inh,Bead autofluor,BJeLR viability,RN4220 kill,ugtP null kill,Mtb hypoxia inh,Mtb hypoxia inh growth
CN(Cc1ccccc1F)C(=O)c1sccc1-c1ccccc1,-8,4995,-1,9.6,6,4,10
COc1ccc(CNC(=O)C2CCN(S(=O)(=O)N3CCC4(CC3)OCCO4)CC2)c(OC)c1,-23,2617,-5,-1.7,5,1,3
CC[C@@H](C)C(NC(=O)OC(C)(C)C)c1cn([C@@H](CCCCNC(=O)OC(C)(C)C)C(=O)N2CCN(C(=O)OC(C)(C)C)CC2)nn1 (stereo not given in full),-3,4039,-3,·,·,·,·
COc1ccccc1NC(=O)C(=O)NCC1CCCN1S(=O)(=O)c1cccs1 (stereo not given),-1,7911,9,·,·,·,·

# Additional results follow.
SMILES,PrP UTR inh,Bead autofluor,BJeLR viability,RN4220 kill,ugtP null kill,Mtb hypoxia inh,Mtb hypoxia inh growth
CCOC(=O)Cn1c(=O)oc2cc(S(=O)(=O)N3CCCC(C)C3)ccc21 (stereo not given),-14,5762,10,-0.6,4,1,7
CCc1ccc(NC(=O)CSc2nc(=O)n(CCN(C)C)c3c2CCCC3)cc1,-9,6592,6,-0.7,5,4,4
CCc1ccccc1-n1nnc(-c2ccccc2)n1,-15,3894,5,4.3,4,-1,3
O=C(Cc1ccccc1)Nc1cccc(C(=O)N/N=C/c2ccco2)c1,-30,2492,19,·,·,·,·
COCCNC(=S)NNc1cccc(C(=O)O)c1,-22,4342,-3,0.6,3,-2,10
CC1CCCCN1C(=O)CCn1c(=S)oc2ccccc21 (stereo not given),-31,·,5,3.5,9,-4,12
COc1cc(/C=C/C(=O)OCC(=O)Nc2cccc(Oc3ccccc3)c2)ccc1O,-1,2496,2,19,57,4,1
COc1ccc(-c2noc(CN3CCN(c4ccccc4)CC3)n2)cc1,-56,5419,8,3.4,13,·,·
COc1ccc2c(c1)C(=O)N(c1ccc(C)cc1C)C(=O)C2(C)C,-17,5293,5,3.3,4,16,10
C[C@H]1CN=C(Nc2ccccc2)N1CCCC1CCCC1,-18,3812,-3,·,·,·,·
CCCCn1c(SCC(=O)OCC)nc2c(sc(=S)n2-c2ccccc2OC)c1=O,·,3197,1,-1.8,0,6,8
Clc1ccc(Nc2ncnc3c2nnn3Cc2ccccc2)cc1,·,6523,-20,-1.4,1,16,6

# 2 of the compounds above, with values under each structure:
# Below each compound: PrP UTR inh	Bead autofluor	BJeLR viability	RN4220 kill	ugtP null kill	Mtb hypoxia inh	Mtb hypoxia inh growth
- CCCCn1c(SCC(=O)OCC)nc2c(sc(=S)n2-c2ccccc2OC)c1=O
 : ·	3197	1	-1.8	0	6	8
- Clc1ccc(Nc2ncnc3c2nnn3Cc2ccccc2)cc1
 : ·	6523	-20	-1.4	1	16	6

# Next part.
SMILES,PrP UTR inh,Bead autofluor,BJeLR viability,RN4220 kill,ugtP null kill,Mtb hypoxia inh,Mtb hypoxia inh growth
O=C(CN1C(=O)SC(=Cc2ccc(O)cc2)C1=O)c1ccccc1,·,·,·,12,10,0,-1
CC1(C(=O)O)CCC(C(=O)N2CCCCC2)C1(C)C (stereo not given),5,4255,-2,0.8,2,-5,17
Cn1nnnc1Sc1ccc([N+](=O)[O-])cc1Cl,-9,4498,0,-1.5,27,2,1
CN1CCN(C(=O)/C=C/c2ccc3c(c2)OCO3)CC1,2,2201,-29,0.4,1,3,4
CC(NC(=O)Nc1nnc(C(F)(F)F)s1)N1C(=O)C2C3C=CC(C3)C2C1=O (stereo not given),-9,2809,-4,5.1,1,7,4
COc1ccc(Oc2ncccc2[N+](=O)[O-])cc1,-19,4391,-4,2.7,16,11,-1
CC1=NN(c2ccccc2)C(=O)/C1=C/N(C)C,-2,3225,-4,7.0,2,6,0
Cc1c([N+](=O)[O-])c([N+](=O)[O-])nn1CC(=O)N1CCOCC1,-13,3524,-5,0.3,10,-3,8
COC(=O)c1ccccc1NC(=O)c1ccco1,-22,2121,·,5.1,8,·,·
O=C(NCCN1CCOCC1)c1ccc2c(c1)N(Cc1ccccc1F)C(=O)c1ccccc1S2(=O)=O,-4,5280,2,3.0,0,5,14
O=C(Nc1ccon1)c1ccc2c(c1)OCO2,-11,16433*,-3,5.0,3,0,-6
CCC(C)NC(=O)c1ccc(NC(=O)C2=C(C)OCCS2)cc1 (stereo not given),-35,4425,1,1.1,-1,11,1
CCc1nnc(NC(=O)CSc2nc(C)c3c(c2C#N)CCCC3)s1,-25,10128,4,6.0,-15,-2,3
Oc1ccc(CC2CNCCN2CC2CCCCC2)cc1 (stereo not given),·,·,·,2.7,-7,4,6
O=C(O)c1ccccc1SCC(=O)N1c2ccccc2Sc2ccccc21,-9,2489,11,19,5,10,2
COCC(C)n1c(SCC(=O)N2CC(=O)Nc3ccccc32)nc2ccccc2c1=O (stereo not given),8,·,·,1.1,-5,1,1
COC(=O)CC(NC(=O)c1ccco1)c1cccc2ccccc12 (stereo not given),-13,5164,10,0.0,0,·,·
Cn1c(SCC(=O)NC2CC2)nnc1-c1cccs1,0,4026,2,-0.4,5,-7,-10
O=C(Nc1ccc(F)cc1)c1ccccc1F,-73,13329,0,8.0,7,5,2
CC(=O)Nc1ccc(C)cc1NC(C)=O,-30,9544,-7,-3.3,-10,2,5
CC1CCN(CCCCOc2ccccc2-c2ccccc2)CC1,-14,2032,-11,1.9,-3,3,11
C=CCn1c(Cc2cccs2)nnc1SCC(=O)Nc1cccc(OC)c1,-13,16319*,4,2.7,1,2,-2
COc1ccc(CCn2c(=O)c3cccnc3n(Cc3cccc([N+](=O)[O-])c3)c2=O)cc1OC,-18,2051,·,4.3,-1,3,1
Cc1[nH]cnc1CN1CCc2c(c3ccccc3n2C)C1=O,-13,4252,-6,-0.1,-2,-4,-1
CS(=O)(=O)N1CCN(C(=O)NC2CCCCC2)CC1,-15,2489,-1,0.9,4,0,0
CCN1CCN(C(=O)N(c2ccccc2)c2ccccc2)CC1,-25,3374,4,1.8,8,-7,-3
O=C1C(O)CCN1C1CCCCC1 (stereo not given),-15,2957,·,2.8,8,2,7
COc1ccc(CCNC(=O)c2cc3c(=O)n(C)c4ccccc4c3n2C)cc1OC,-5,3928,3,2.7,0,-5,10
Cn1cnc2c(NCc3ccco3)ncnc21,-17,5148,0,2.7,-6,·,·
COc1ccccc1N1CCN(/N=C\c2ccccc2)CC1,-30,3987,4,·,·,·,·

# Compound activity (PubChem BioAssay)
